Screens as filed in PubChem BioAssay.
HNF4A DNA FP: change in binding of human HNF4 alpha to DNA | P41235 | HNF4a-FITC DNA binding, fluorescence polarization, 1 h | activity change, % at 10 µM | 360,000 tested, 0.3% active; in the data active = activity change above about 30%, passing the limit was not always enough;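 note: controls were the assay level and a saturating level of protein; the project sought stronger binding though the title names inhibitors; some compounds called inactive have numbers as strong as hits; positive values seem to mean higher polarization but the record does not say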
Target sequence (P41235 whole entry, looked up): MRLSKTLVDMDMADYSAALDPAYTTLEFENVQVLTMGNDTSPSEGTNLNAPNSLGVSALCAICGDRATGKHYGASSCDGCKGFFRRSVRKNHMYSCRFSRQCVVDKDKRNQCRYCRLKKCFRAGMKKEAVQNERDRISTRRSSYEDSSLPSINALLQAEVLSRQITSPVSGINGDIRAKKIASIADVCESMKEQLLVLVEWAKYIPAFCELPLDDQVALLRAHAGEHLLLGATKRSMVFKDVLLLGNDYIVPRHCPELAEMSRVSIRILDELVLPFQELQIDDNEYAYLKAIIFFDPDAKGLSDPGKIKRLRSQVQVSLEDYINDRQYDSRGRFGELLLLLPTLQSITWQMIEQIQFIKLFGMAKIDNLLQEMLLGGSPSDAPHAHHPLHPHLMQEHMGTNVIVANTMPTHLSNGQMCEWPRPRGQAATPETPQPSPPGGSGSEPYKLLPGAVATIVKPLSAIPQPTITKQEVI
MLL AF4-AF9 inh: MLL-AF4/AF9 protein interaction inhibition; AlphaScreen, biotin-AF4 peptide binding to FLAG-AF9; P42568; inhibition, % at 10 µM; 350,000 tested, 0.47% active;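 active = every replicate reaching a set inhibition limit, whatever the replicate mean, cut at about 25% in these data; inconclusive = mean inhibition reaches that limit but some replicates miss it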;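 note: 0% = plate neutral control median and 100% = total signal loss; the record names both 10 and 1 µM as test concentration; the first replicate is given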
Vif TR-FRET: inhibitors of Vif binding to APOBEC3G peptide, primary screen, biochemical, TR-FRET, GST-Vif 1-94, biotin-A3G peptide, dose response retest (AID 1117319); TR-FRET GST-Vif / biotin-A3G peptide binding; higher % means a stronger effect; test concentration not given here; strong numbers were not always called active; 260,000 tested, 0.57% active; one-dose inhibition, %; IC50 in µM for titrated hits;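 active = above the screen mean plus three standard deviations and confirmed in dose response; inconclusive = results disagree or hit not tested in dose response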;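 note: Vif residues 1-94 fused to GST binding biotinylated APOBEC3G peptide 110-148; 0% = full assay without inhibitor and 100% = GST in place of GST-Vif; retest series ran down from 100 µM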
FGF22 binding: FGF22 (human) thermal shift binding | AID 651658 | recombinant FGF22 thermal shift, SYPRO orange fluorescence; percent of sucrose octasulfate shift, DMSO zero | 340,000 tested, 1.5% active | calls only at 9.99 µM | Q9HCT0;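 active = melting point raised past a set limit in the mean and every replicate; inconclusive = no clear call; three in four hits are not shown here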
Target sequence (Q9HCT0 whole entry, looked up): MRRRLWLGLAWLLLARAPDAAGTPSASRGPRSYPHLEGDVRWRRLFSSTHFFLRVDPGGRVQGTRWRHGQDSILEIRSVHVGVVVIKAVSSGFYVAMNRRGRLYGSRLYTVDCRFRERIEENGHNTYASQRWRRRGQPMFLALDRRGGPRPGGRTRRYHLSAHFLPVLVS
Ecoli growth: blocks Escherichia coli growth; 330,000 tested, 0.21% active; OD600, 23 h; active compounds read low; OD600 absorbance (no concentration beside the values);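 active = OD600 absorbance below the run mean of sample wells minus 3.6 SD, in any replicate, cut at about 0.56 in these data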;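 note: stock transfer was 300 nL into about 60 µL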
ALR H2O2 inh: inhibitors of human sulfhydryl oxidase ALR | P55789 | purified ALR, DTT oxidation, H2O2 HRP-luminol luminescence | inhibition, % (test concentration not listed) | 290,000 tested, 3.8% active;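 active = mean and each replicate at 75% or more; inconclusive = only one of the two met; inactive = neither met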;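 note: stock transfer was 7.5 nL into about 7.5 µL; 0% = neutral wells and 100% = wells with inactivated enzyme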
Target sequence (P55789 whole entry, looked up): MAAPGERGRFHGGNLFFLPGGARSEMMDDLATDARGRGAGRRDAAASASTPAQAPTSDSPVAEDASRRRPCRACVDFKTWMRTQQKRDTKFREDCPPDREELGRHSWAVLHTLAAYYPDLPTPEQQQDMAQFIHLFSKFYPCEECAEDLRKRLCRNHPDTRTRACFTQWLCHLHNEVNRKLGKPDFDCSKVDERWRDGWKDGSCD
rRNA inh HTS: inhibits bacterial ribosomal RNA function over humanized ribosomes | E. coli WT GFP vs humanized-ribosome RFP mutants, fluorescence, 24 h; active compounds read low; DMSO median 0, no signal -100 | GFP signal change (wild-type ribosome), % (test concentration not listed) | 350,000 tested, 1.6% active;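 active = significant combined selectivity score with lowered wild-type GFP, culture density cut under 30%, mutant RFP and density less affected; inactive = any of these conditions unmet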; note: one replicate is shown; some compounds called inactive have numbers as strong as hits
rRNA inh HTS OD600: further read-out of rRNA inh HTS, marked with its call; OD600 change, %; measured here: OD600 growth;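 optical density of the mix in the first replicate; 0 = DMSO median and -100 = no signal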
rRNA inh HTS RFP: recorded beside rRNA inh HTS, whose call it bears; RFP signal change, %; measured here: RFP humanized mutant strains;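 first replicate; 0 = DMSO median and -100 = no signal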
* hit, by the source's call; i = inactive; ? = inconclusive; . = not tested or not shown.

Results follow in this order: rRNA inh HTS OD600, ALR H2O2 inh, MLL AF4-AF9 inh, FGF22 binding, rRNA inh HTS, Ecoli growth, rRNA inh HTS RFP, HNF4A DNA FP, Vif TR-FRET
1: COc1ccc(C(=O)OCC(=O)Nc2ccc(Cl)c(C(F)(F)F)c2)c(OC)c1OC
    -58, 16, -1.1, i, -35, 0.72, 0.6, -0.9, .
2: Cc1ccc(NC(=O)Nc2ccc3c(c2)C(=O)OC3)cc1Cl
    -1, -5, -6.0, i, 18, 0.68, 1.7, 0.0, 21%
3: CCc1ccc(-c2nc(SCC(=O)NC3CCCC3)n[nH]2)cc1
    -2, 1, -3.2, i, 7, 0.75, 1.6, 1.4, 3%
4: CCOC(=O)c1c(NC(=O)COC(=O)CCS(=O)(=O)c2ccc(C)cc2)sc(C)c1C
    ., 94*, ., ., ., 0.71, ., 0.2, -3%
5: Cc1ccc(S(=O)(=O)N(C)C)cc1NC(=O)COC(=O)c1cccs1
    12, ., -16, i, 6, ., 0.8, -2.9, .
6: CO[C@@H]1CN(C)C(=O)c2ccc(NC(=O)c3nc4ccccc4s3)cc2OC[C@@H](C)NC[C@@H]1C
    2, ., 3.0, i, -7, ., 0.5, ., .
7: C=CCOc1nc2sc(C)c(C)c2c(=O)n1-c1ccccc1
    7, 0, 4.1, i, 18, 0.68, 3.2, 3.0, 17%
8: CCS(=O)(=O)c1ccc(S(=O)(=O)CC)s1
    ., -12, ., ., ., 0.68, ., -2.3, 4%
9: CCc1ccc2nc(SCC(=O)Nc3nnc(C)s3)c(C)cc2c1
    6, 6, -3.0, i, 10, 0.67, 1.0, -5.9, -4%
10: COc1cc(S(=O)(=O)NCCN2CCOCC2)c(OC)cc1Cl
    ., ., ., ., ., 0.7, ., -1.2, 0%
11: CC(C)Cn1c(=S)[nH]c2cc(C(=O)O)ccc2c1=O
    10, 1, 0.3, i, 4, 0.71, 2.9, 0.8, .
12: C[C@H]1CN([C@@H](C)CO)S(=O)(=O)c2ccc(C3=CCCCC3)cc2O[C@H]1CN(C)S(=O)(=O)c1cn(C)cn1
    -11, ., 4.7, i, -2, ., 6.0, ., .
13: COC(CNC(=O)C1CCN(S(=O)(=O)c2ccc3nc4c(c(C(=O)O)c3c2)CC(C)CC4)CC1)OC (centres undefined)
    4, -11, -1.4, i, 1, 0.72, 1.4, -7.0, .
14: CCCN(Cc1nnc(-c2cccs2)o1)C(=O)c1cccc(S(=O)(=O)N2CCOCC2)c1
    7, -4, 2.9, i, 6, 0.72, 1.4, 2.9, -10%
15: C/C(=N\NC(=O)c1ccc([N+](=O)[O-])cc1)c1cc2ccccc2oc1=O
    ., 40, ., ., ., ., ., 0.1, 13%
16: CCC(=O)Nc1sc(C(=O)N2CCCCC2)c(C)c1C#N
    -6, 16, 2.3, i, 7, 0.67, 2.4, -5.5, 5%
17: Cc1ccc(S(=O)(=O)N(C)C[C@@H]2Oc3ccc(NC(=O)C4CCCCC4)cc3C(=O)N([C@H](C)CO)C[C@H]2C)cc1
    -7, ., -14, i, -3, ., 1.3, ., .
18: CCOCc1nnc(NC(=O)COC)s1
    ., -5, ., ., ., 0.68, ., -0.8, 26%
19: Cc1ccccc1/C=N/Nc1nc2ccccc2c(=O)n1O
    12, 0, -1.7, i, 13, ., 2.9, -2.3, -3%
20: N#C/C(=C\c1c(N2CCCCCC2)nc2ccccn2c1=O)C(=O)NCc1ccco1
    -24, 5, 4.8, i, -27, 0.68, -3.0, -1.7, 8%

Individual results from the results shown:
Vif TR-FRET, compound 2 is entered as 21%
MLL AF4-AF9 inh, compound 19 is entered as -1.7

Additional records follow:
Results follow in this order: rRNA inh HTS OD600, ALR H2O2 inh, MLL AF4-AF9 inh, FGF22 binding, rRNA inh HTS, Ecoli growth, rRNA inh HTS RFP, HNF4A DNA FP, Vif TR-FRET
21: O=C(N1CCN(Cc2ccc3c(c2)OCO3)CC1)C(Cl)(Cl)Cl
    -8.9*, ., 0.5, i, -19*, 0.66, 6.6*, -4.0, .
22: COc1ccc(NC(=O)CSc2ccc3c(c2)OCCO3)cc1S(N)(=O)=O
    4, -5, -2.4, i, 2, 0.72, -2.1, 7.1, -15%
23: CSc1ccccc1OCc1cc(C(=O)N(C)C2CCCc3ccccc32)no1 (centres undefined)
    -11, -4, 1.1, i, -7, 0.73, 2.2, 2.5, .
24: CCNC(=O)[C@H]1[C@H](CO)[C@H]2Cn3c(ccc(-c4ccccc4)c3=O)[C@H]2N1Cc1cc(F)ccc1F
    -14, ., -1.5, i, -5, ., -1.4, ., .
25: Fc1ccc(Cn2nnnc2C(c2cccs2)N2CCCCCC2)cc1 (centres undefined)
    ., 4, ., ., ., 0.66, ., 4.3, 9%
26: Cc1ccc(S(=O)(=O)N/N=C\c2ccc([N+](=O)[O-])o2)cc1
    ., -13, ., ., ., ., ., 0.1, 7%
27: N#C/C(=C\c1ccc(C(=O)O)cc1)S(=O)(=O)c1cc(Br)ccc1Br
    -12, 92*, -1.8, i, -11, 0.67, -0.5, -2.3, -3%
28: CNc1ncnc2c1ncn2[C@H]1CN(Cc2ccccc2)C[C@@H](CO)O1
    24, ., -4.5, i, 14, ., 6.4, 0.9, .
29: O=C(NCC(=O)N(Cc1cccs1)C(C(=O)NC1CCCCC1)c1ccncc1)c1ccco1 (centres undefined)
    ., -15, ., ., ., 0.7, ., 4.0, ?
30: C[C@@H]1CCCCO[C@H](CN(C)CC2CC2)[C@@H](C)CN([C@@H](C)CO)C(=O)c2cc(NS(=O)(=O)c3ccc(Cl)cc3)ccc2O1
    -4, ., 14, i, 2, ., 9.1, ., .
31: CC(=O)N1c2ccc(S(=O)(=O)N3c4ccccc4CC3C)cc2CC1C (centres undefined)
    -46, 0, 1.0, i, -22, 0.7, -7.9, -1.9, .
32: CC(=NNc1ccc([N+](=O)[O-])cn1)c1ccc(N)cc1
    3, ., 14, i, -3, 0.65, 7.5, 0.2, -6%
33: CCN1C(=O)[C@H]2[C@@H](c3ccc(-c4cccc(Cl)c4)c(OC)c3)N[C@@](Cc3ccccc3)(C(=O)OC)[C@H]2C1=O
    6, 7, 3.4, i, 6, ., -1.0, -0.9, .
34: COc1ccc(CNC(=O)COC(=O)c2cc3ccccc3cc2O)cc1OC
    -2, ., -17, i, -1, 0.71, 1.1, 0.2, .
35: COc1ccc2c3c(n(C)c2c1)[C@H](CO)N(C(=O)c1cnccn1)CC31CCN(C(=O)c2ccncc2)CC1
    -3, ., -1.6, i, -1, ., 1.4, ., .
36: CC1(C)CC(=O)C=C(Nc2ccc(O)cc2)C1
    16, ., 0.7, i, 14, ., 5.8, -0.3, 5%
37: C=CCC1(CC=C)CCCN1C(=O)CC1C(=O)NCCN1Cc1cccc(OC)c1 (centres undefined)
    -12, -8, 0.8, i, -14, 0.67, 0.0, -4.1, 4%
38: COC(=O)C[C@H]1CC[C@H]2[C@H](COc3ccc(NC(=O)c4ccccc4)cc3C(=O)N2C)O1
    -4, ., 4.0, i, -2, ., 1.0, ., .
39: COC(=O)COc1ccccc1C(=O)Nc1ccc(OC)cc1
    -1, -5, -3.6, i, 1, 0.69, -1.8, -1.5, 11%
40: CN(C)c1ccc(CN(C(=O)COc2ccc(F)cc2)C2CCS(=O)(=O)C2)cc1 (centres undefined)
    -7, 32, 7.8, i, 3, 0.67, -4.1, -1.0, 0%
41: CO[C@@H]1CN(C)C(=O)c2ccc(NC(=O)Nc3ccccc3)cc2OC[C@H](C)N(C(=O)CC2CC2)C[C@@H]1C
    -6, ., 2.3, i, -8, ., 0.8, ., .
42: CCOC(=O)c1c(CSc2ccc(C)cc2)n(C)c2cc(Br)c(O)c(CN(C)C)c12
    -76, ?, 20, ., -56, 0.66, -19, -0.5, 17%
43: COCCCNC(=O)CCc1nc2cccnc2n1Cc1ccc(OC)cc1
    ., -10, ., ., ., 0.62, ., 0.3, 2%
44: Oc1cccc(CN2CCCCC2)c1
    ., 0, ., ., ., 0.66, ., -0.9, .
45: O=C(CN1CCN(S(=O)(=O)c2ccccc2F)CC1)Nc1ccnn1C1CCCC1
    7, ., 2.1, i, 4, 0.67, 0.7, 5.8, .
46: CO/N=C/c1cc([N+](=O)[O-])ccc1Sc1ccc(C)cc1
    ., -17, ., ., ., ., ., -0.6, -4%
47: CCCC(=O)N1CCCC(c2cc(C(=O)NCc3ccc(F)cc3)no2)C1 (centres undefined)
    -4, ., 0.3, i, -2, ., -6.0, -2.1, .
48: CN1C(=O)c2cc(NC(=O)C3CC3)ccc2OC[C@@H]2O[C@H](CC(=O)NCCN3CCCC3)CC[C@@H]21
    5, ., -0.6, i, 2, ., -0.6, ., .
49: CSc1cccc(NC(=O)N2CCc3ccc(NC(=O)c4ccccn4)cc3C2)c1
    -15, -41, -0.3, i, -14, 0.68, 4.1, 4.6, 3%
50: CC(O)c1nc2c(c(=O)n(C)c(=O)n2C)n1C (centres undefined)
    -38, -4, 7.2, i, -43, 0.69, -6.3, -3.4, .
51: CS(=O)(=O)c1ccc(C(=O)N(CCc2ccccc2)Cc2ccccc2)cc1
    -21, -16, -0.3, i, -10, 0.69, -0.8, -1.5, .
52: CCC1(C)Cc2nc3sc(C(=O)O)c(N)c3cc2CO1 (centres undefined)
    ., 5, ., ., ., 0.73, ., 7.9, 33%
53: O=C(CC1CC1)N1CC2(C1)[C@H](c1ccccc1)[C@H](CO)N2Cc1cccc(F)c1
    -18, ., 1.0, i, -6, ., 2.5, ., .
54: Cc1cc(=O)[nH]c(NC(=O)Cc2ccccc2)n1
    9, ., 2.5, i, 7, ., -2.2, 1.1, 7%
55: C[C@@H]1CCCCO[C@@H](CN(C)C)[C@H](C)CN([C@@H](C)CO)C(=O)c2cc(NS(C)(=O)=O)ccc2O1
    5, ., -6.0, i, 1, ., -0.2, ., .
56: CC1CCCC(C)N1C(=O)CN1c2cccc3cccc(c23)S1(=O)=O (centres undefined)
    -7, -10, -0.4, i, -9, 0.69, -2.1, 2.6, .
57: O=C(Nc1cccs1)Nc1ccccc1Cl
    ., 89*, ., ., ., 0.62, ., 3.3, 5%
58: CN(Cc1nc(-c2ccncc2)no1)S(=O)(=O)c1ccc(Cl)cc1
    ., -1, ., ., ., 0.69, ., -3.0, 12%
59: CCCC(=O)Nc1ccc2c(c1)C(=O)N(C)[C@@H]1CC[C@H](CC(=O)NCCc3ccccc3)O[C@H]1CO2
    2, ., -2.0, i, 0, ., -0.3, ., .
60: C[C@@H]1CN([C@@H](C)CO)S(=O)(=O)c2ccc(Br)cc2O[C@@H]1CN(C)Cc1ccccc1
    -33, ., 7.3, i, -11, ., 15, ., .
61: C=C[C@@H]1c2ccccc2N(S(=O)(=O)c2ccc(C)cc2)[C@H](c2ccccc2)C1(C#N)C#N
    11, -2, -0.8, i, 11, ., -0.2, -2.4, .
62: COc1ccc(-n2c(C)nnc2SCC(=O)N2C(C)CCCC2C)cc1 (centres undefined)
    -1, -2, -22, i, -2, 0.66, -7.0, 2.6, 1%
63: CCCC(=O)Nc1ccc2c(c1)C(=O)N(C)[C@H]1CC[C@H](CC(=O)NCC3CCCCC3)O[C@@H]1CO2
    1, ., 1.8, i, 2, ., 2.3, ., .
64: O=C1CCCCC1Nc1ccc([N+](=O)[O-])cc1 (centres undefined)
    -1, ., -0.5, i, -6, ., 1.7, 4.8, .
65: Cc1ccc(CN(C)C(=O)COC(=O)CSc2cc(C)c3ccccc3n2)cc1
    -8, 13, -0.9, i, -5, 0.67, -0.7, -2.8, 3%
66: Cn1c(=O)n(CC#N)c2ccccc21
    ., 35, ., ., ., 0.7, ., 3.0, -8%
67: CC(=O)c1ccc(OCCCC(=O)Nc2ccc(C)c(S(=O)(=O)N3CCCCC3)c2)cc1
    -2, ., -5.4, i, 0, 0.72, -1.1, -0.5, -3%
68: N#Cc1c(/N=C/N2CCCC2)oc(-c2ccccc2)c1-c1ccccc1
    ., 1, ., ., ., ., ., -1.4, 8%

An excerpt, so the mix of outcomes need not match the whole.
